# Screening data deposited in PubChem by PCMD.
# Calb biofilm kill = mixtures killing C. albicans biofilm; C. albicans biofilm persisters + clotrimazole, fluorescence viability; primary screen in compound mixtures of four per well; inhibition, % at 7.6 µM; 120,000 tested, 0.02% active; AID 1242;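 active means inhibition above 30.3% in the primary screen of four-compound pools, then above 30% when the compound was retested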;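 further: compounds exposed to preformed 24 h biofilms for 48 h; the number belongs to the whole pool; some results filed as inactive read as strong as hits; inactives centre near 12; 0% = biofilm with clotrimazole alone and 100% = kill control; retested singly at about 60 µM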
#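 Incubation: 24 h biofilm formation, then 48 h compound exposure, 37 °C | Material: C. albicans biofilms | Buffer or medium: RPMI/MOPS medium, pH 7.0 | Measured by: 2-h Alamar Blue fluorescence, 535/590 nm excitation/emission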
# The depositor's hits bear a star. A portion of the library. The share of hits here may be higher or lower than overall.
item	structure	Calb biofilm kill
1	Cc1ccc(NC(=O)NC(=O)COc2ccc(Cl)cc2Cl)c(C)c1	19
2	Cn1c(=S)n(CCC(=O)O)c2ccccc21	22
3	Cc1cnc(NC(=O)CCN2C(=O)C3CCCCC3C2=O)s1 (centres undefined)	9
4	O=C(NN1C(=O)C2C(C1=O)C1C=CC2C12CC2)c1cccc(Cl)c1 (centres undefined)	23
5	COc1ccc(/C=N/Nc2nc(-c3ccc(C)cc3)c(NC(C)=O)s2)cc1	27
6	O=C(CSC1CC(=O)N(CCc2ccccc2)C1=O)Nc1ccc(Cl)cc1 (centres undefined)	16
7	O=C(Nc1ccc(C2=NCCN2)cc1)c1ccc(C(=O)Nc2ccc(C3=NCCN3)cc2)c(Cl)c1	23
8	CC(C)(C)NC(=O)C(c1c[nH]c2ccccc12)N(C(=O)Cn1nnc(-c2ccc(F)cc2)n1)c1cccc(O)c1 (centres undefined)	13
9	N#CC1=C(N)Oc2ccc3ccc(O)cc3c2C1c1ccsc1 (centres undefined)	11
10	COc1ccc(C(=O)N[C@H](C(=O)Nc2nc3ccccc3[nH]2)C(C)C)cc1	9
11	COc1ccc(-c2cccc(C(=O)Nc3ccccc3C)c2)cc1	14
12	CCCN1C2CCCC1CC(NC(=O)Nc1ccc(C(C)C)cc1)C2 (centres undefined)	8
13	COC(=O)C1=C(NC(=O)C(C)(C)C)CCS1	9
14	CCn1c2ccccc2c2cc(NC(=O)c3cc(C)on3)ccc21	4
15	O=c1cc(-c2ccccc2)[nH]c2cc(Cl)ccc12	11
16	COc1ccccc1NC(=S)NCCSc1ccc(Cl)cc1	23
17	CC1CCCN(CCOc2ccc(Br)cc2)C1 (centres undefined)	7
18	COc1ccc(OC)c(NC(=O)COC(=O)CN(C)S(=O)(=O)c2ccc(C)cc2)c1	8
19	Cc1cc(-c2ccccc2)n2nc(N)nc2n1	6
20	S=C(NC1CCCC1)N1CCOCC1	13
21	COc1ccccc1Oc1ccc(N/C=C/C(=O)C(C)(C)C)cc1	6
22	CC(=O)C1=C(C)NC(=O)NC1c1ccc(Cl)cc1 (centres undefined)	-1
23	O=C(O)c1ccc(-n2[nH]c3c(c2=O)CCCC3)cc1	3
24	N#Cc1ccccc1Cn1c(=O)n(CCCC(=O)NCc2ccc3c(c2)OCO3)c(=O)c2ccccc21	-1
25	Cc1ccc([N+](=O)[O-])c(C(=O)Nc2cccnc2Cl)c1	26
26	CC1SC(=NC(=O)C(C)N2C(=O)c3ccccc3C2=O)NC1=O (centres undefined)	4
27	CCOCCCN1C(=O)C(O)=C(C(C)=O)C1c1cccs1 (centres undefined)	13
28	CCOC(=O)c1oc2ccccc2c1NC(=O)CCl	15
29	COc1cccc(/C=N/Nc2ncnc(Cl)c2N)c1O	39
30	COc1ccc(CN(C)CC(=O)NC(=O)NCc2ccccc2)cc1OC	17
31	CCc1ccc[n+](-c2nc([O-])sc2C=O)c1	20
32	Cc1ccc(Cn2ccc(NC(=O)c3cc(C4CC4)on3)n2)cc1	21
33	CCOc1cc(N2CCOCC2)c(OCC)cc1NC(=O)c1ccc(C)cc1	12
34	Cn1cccc1/C=C1/SC(=O)N(CC(=O)N2CCCC2)C1=O	28
35	Cc1ccc2nc3c(cc(C(=O)NC4CCCC4)c(=N)n3CCCn3ccnc3)c(=O)n2c1	17
36	Cc1c(C(=O)OCC(=O)N(C)C2CCS(=O)(=O)C2)oc2ccc(Br)cc12 (centres undefined)	11
37	O=C1/C(=C/c2ccccc2)CCC1C1CCCC1 (centres undefined)	14
38	Cc1ncc([N+](=O)[O-])n1CCOC(=O)C12CC3CC(CC(C3)C1)C2	12
39	CCOc1ccc2nc(NC(=O)c3ccccn3)sc2c1	19
40	CCOc1ccc(CN2CCN(Cc3cnc(-c4ccccc4)s3)CC2CCO)cc1 (centres undefined)	8
41	CC1CCN(C(=O)COc2cccc3c2CCN(Cc2ccccc2)C3=O)CC1	21
42	CCOc1ccc(NC(=O)c2ccc(NC(=O)CSc3nc4ccccc4c(=O)[nH]3)cc2)cc1	5
43	CC(C)OC(=O)CSc1nc(Cc2cccs2)nc2ccccc12	14
44	O=C(N/N=C/c1ccc(-c2cccc([N+](=O)[O-])c2)o1)[C@H]1C[C@@H]1c1ccccc1	15
45	Cc1oc(S(=O)(=O)N2CCCCC2)cc1NC(=O)Nc1ccccc1	24
46	CCSc1nnc(NC(=O)C2CC2c2ccccc2)s1 (centres undefined)	8
47	COc1ccc(C(=O)/C=C/c2ccc(N3CCCCC3)c([N+](=O)[O-])c2)cc1	17
48	COCCN=C1Sc2nc3cc4c(cc3cc2CN1CC1CCCO1)OCO4 (centres undefined)	17
49	O=C(NCc1ccccn1)C(=O)NN=C1CCCCCCCCCCC1	10
50	COC(=O)c1ccc(NC(=O)C23CC4CC(C2)CC(n2cnc(Cl)n2)(C4)C3)cc1	14
51	O=C(COC(=O)c1ccc[nH]c1=O)NC1CCCCCC1	-4
52	O=[N+]([O-])c1cc(Cl)ccc1N1CCOCC1	5
53	COc1cc(OC)cc(-c2nc(=S)n3ccsc3n2)c1	44
54	Cc1ccc2oc(=O)c3cc(C(=O)NCCCN4CCc5ccccc5C4)sc3c2c1	0
55	O=[N+]([O-])c1ccc(-n2ccnc2)cc1	16
56	O=C(NNC(=S)Nc1ccc(F)cc1)c1cccc([N+](=O)[O-])c1	4

# Continued:
item	structure	Calb biofilm kill
57	COc1ccc(N2C(=O)C3C(C2=O)C2C=CC3C23CC3)c([N+](=O)[O-])c1 (centres undefined)	12
58	O=C(COC(=O)c1ccc(CO)cc1)Nc1ccc(OC(F)F)cc1	3
59	COCCNC(=S)N/N=C(\C)c1cc2ccccc2o1	14
60	C[C@H](NS(=O)(=O)c1ccccc1)C(=O)OCC(=O)NC(=O)Nc1ccc2c(c1)OCCO2	12
61	COc1ccc(NC(=O)C2CC(=O)N/C(=N/N=C/c3ccco3)S2)cc1 (centres undefined)	12
62	CCc1n[nH]c(=S)n1/N=C/c1cc(Br)c(OC)cc1OC	16
63	COCCNC(=O)C(c1ccccc1F)N(C(=O)C(=O)NC1CCCC1)C1CCCCC1 (centres undefined)	24
64	O=C(/C=C/c1ccc([N+](=O)[O-])cc1)N(c1ccccn1)C1CCCCC1	14

# Shown with each value named: entries from further up.
57	COc1ccc(N2C(=O)C3C(C2=O)C2C=CC3C23CC3)c([N+](=O)[O-])c1 (centres undefined)
  Calb biofilm kill = 12
61	COc1ccc(NC(=O)C2CC(=O)N/C(=N/N=C/c3ccco3)S2)cc1 (centres undefined)
  Calb biofilm kill = 12
59	COCCNC(=S)N/N=C(\C)c1cc2ccccc2o1
  Calb biofilm kill = 14
62	CCc1n[nH]c(=S)n1/N=C/c1cc(Br)c(OC)cc1OC
  Calb biofilm kill = 16

# (list continues)
item	structure	Calb biofilm kill
65	Cc1cccc(N(CC(=O)NC(C)(C)C)C(=O)CNC(=O)c2cccs2)c1	28
66	O=C(NCCc1cccs1)C1CC(c2ccccc2F)=NO1 (centres undefined)	16
67	CC(=O)Nc1ccccc1OCc1cnc(Cl)s1	8
68	COc1cccc2cc(C(N)=O)oc12	13
69	Cc1cc(N)c2cc(NC(=O)/C=C/c3ccccc3Cl)ccc2n1	17
70	O=C(COC(=O)c1cc([N+](=O)[O-])ccc1NCCO)NCc1cccs1	9
71	COC(=O)c1sc(S(=O)(=O)Nc2ccc(C)c(C)c2)c(C(=O)OC)c1C	-5
72	CC1(OC(=O)CCc2ccccc2)C(=O)C=C2C=C(c3ccc(C#N)cc3)N(CCc3c[nH]c4ccccc34)C=C2C1=O (centres undefined)	14
73	COc1ccc(CC(=O)Oc2cc(C)[nH]c(=O)c2[N+](=O)[O-])cc1	15
74	Cn1c(N)c(C(=O)CCl)c(=O)n(Cc2ccccc2)c1=O	16
75	Cc1nc(Cl)c2c(n1)NC(=O)CO2	8
76	CCN1CCN(Cc2ccc(NC(=O)c3cc(NC(=O)C(=O)c4c[nH]c5ccccc45)cc(OC)c3)cc2C(F)(F)F)CC1	16
77	COc1ccc(-n2c(C)ccc2C)c([N+](=O)[O-])c1	16
78	NC(=O)c1ccccc1N(Cc1ccccc1)S(=O)(=O)c1ccccc1	11
79	COc1cc(/C=N/NC(=O)c2csc3c2CCCC3)cc(OC)c1O	3
80	CCNC(=S)NNC(=O)c1c(Cl)c(C)nn1C	-3

# Sorted by heavy-atom count (highest first): some entries from above
item	structure	Calb biofilm kill
79	COc1cc(/C=N/NC(=O)c2csc3c2CCCC3)cc(OC)c1O	3
77	COc1ccc(-n2c(C)ccc2C)c([N+](=O)[O-])c1	16
75	Cc1nc(Cl)c2c(n1)NC(=O)CO2	8

# Next structures follow.
item	structure	Calb biofilm kill
81	CCn1c(/C=C2\C(=O)N(C(C)C)c3ccccc32)nc2ccccc2c1=O	10
82	CNc1nc2ccccc2n1N	11
83	CCc1ccc(C(=O)NCc2ccc(Cl)cc2)cc1	12
84	O=C(c1cccs1)N(c1ccc(Cl)cc1)C1C=CS(=O)(=O)C1 (centres undefined)	-9
85	CC(C)=CCN1CCN(Cc2cccn2-c2ccccn2)CC1CCO (centres undefined)	12
86	CC(=O)[C@@H]1[C@@H](C(=O)c2ccc(F)cc2)[C@]2(C(=O)Nc3ccccc32)[C@H]2C=Cc3cc(F)ccc3N12	12
87	N/C(=N\OC(=O)c1cccnc1)c1ccccc1Cl	13
88	COC(=O)c1ccc(OCCOCCOc2cccc3ccc(C)nc23)cc1	-18
89	Cc1cc(C)c2[nH]c(=O)c(CN(Cc3ccco3)C(=S)NCC3CCCO3)cc2c1 (centres undefined)	9
90	S=C(c1ccc(-c2ccccc2Cl)o1)N1CCCCC1	25
91	CC1CC2(CCCCC2)Nc2c1ccc1ccccc21 (centres undefined)	11
92	CCCc1cnc(N2CCN(S(=O)(=O)c3cccs3)CC2)nc1	16
93	CCOC(=O)c1cnc2nc(N3CCOCC3)nn2c1N	15
94	COc1ccccc1-c1noc(CCCC(=O)N2CCOCC2)n1	9
95	Cc1ccc2nc(N3CCN(Cc4nnnn4C4CCCC4)CC3)c(C#N)cc2c1	13
96	CCOC(=O)C(=CNc1ccc2c(c1)nnn2-c1ccc(Cl)cc1)C(=O)OCC	14

# Taken from above:
# cpd 94 – Calb biofilm kill = 9
# cpd 90 – Calb biofilm kill = 25
# cpd 93 – Calb biofilm kill = 15
# cpd 89 – Calb biofilm kill = 9
# cpd 96 – Calb biofilm kill = 14
# cpd 92 – Calb biofilm kill = 16

# Next results
item	structure	Calb biofilm kill
97	Cc1cc(C(=O)COC(=O)CCc2nc3ccccc3c(=O)[nH]2)c(C)n1CC1CCCO1 (centres undefined)	21
98	Cc1cc(C(=O)Nc2ccc3nc(C)sc3c2)c2ccccc2n1	13
99	CCC1C(c2ccccc2)N(C)C(c2ccccc2)CC1(O)c1ccccc1 (centres undefined)	9
100	CCCc1nc(NCCO)c(C#N)c2c1CCCC2	24
101	NNC(=O)CN1C(=O)Nc2ccc(Br)cc2C1c1ccccc1 (centres undefined)	4
102	Cc1ccc(-c2n[nH]c(=S)c3ccccc23)cc1	10
103	O=C(N=C1c2ccccc2CN1c1cccc(Cl)c1)c1cccnc1	15
104	CCOC(=O)CC(=O)NC1(Cc2ccc(O)cc2)CCCCC1	7
105	CCN=C1NN=C(c2cc(C)n(Cc3ccco3)c2C)CS1	-6
106	CCCCNC(=O)CC1NCCNC1=O (centres undefined)	12
107	COc1ccc(C2(C(=O)Nc3ccc(OC)cc3OC)CCCC2)cc1	23
108	COc1cc(OC)c(S(=O)(=O)Nc2ccccc2N2CCCCC2)cc1NC(C)=O	21
109	Cc1cccc(C(=O)Oc2ccccc2/C=N/NC(=O)c2ccc(NC(=O)C(C)(C)C)cc2)c1	6
110	Cc1nc2c(=O)n(-c3ccc(F)cc3F)nc(C)c2s1	19
111	C=C(C(=O)c1ccccc1)C(C(=C)C(=O)c1ccccc1)c1ccc(OC)cc1	4
112	CCOC(=O)C1=C(O)C(=O)N(c2ccc(S(N)(=O)=O)cc2)C1c1ccc(Br)cc1 (centres undefined)	10
113	O=C(NCc1nc2ccccc2[nH]1)C1=C[C@H](C2CC2)C[C@H](OCc2ccc(CO)cc2)O1	25
114	O=C(N/N=C/c1ccccc1O)c1cc(=O)[nH]c2ccccc12	13
115	CCCC/C(C)=N/NC(=O)CN(c1ccc(Br)cc1)S(=O)(=O)c1ccccc1	16
116	O=C(/C=C/c1cccc([N+](=O)[O-])c1)Nc1ccccn1	27
117	COC(=O)c1sccc1NC(=S)Nc1ccccc1	5
118	O=C(c1cccc(N2C(=O)C3C4C=CC(C4)C3C2=O)c1)N1CCCc2ccccc21 (centres undefined)	10
119	CCN(CC)c1ccc(C(=O)N/N=C/c2ccccc2OC(F)F)cc1	2
120	Cc1ccc(CN2CCN(/N=C/c3cc(Br)cc(Br)c3O)CC2)cc1	4
121	O=C(Cc1ccccc1)NNC(=O)c1ccccc1C(=O)O	20
122	CCC(=O)NCCNc1nc2cc(C)cc(C)c2cc1C#N	3
123	O=C(NNc1nc2ccc(F)cc2s1)c1cccc(F)c1	13
124	CCOP(=O)(OCC)c1nc(-c2ccc(C)cc2)oc1NCc1ccccc1	18
125	Clc1cccc(CN2COc3c(cc(Cl)c4cccnc34)C2)c1	22
126	O=C(Nc1nnc(-c2ccc(Cl)cc2)o1)C1=COCCO1	7
127	O=C(NNS(=O)(=O)c1ccccc1C(F)(F)F)c1cc2ncc(C(F)(F)F)cc2s1	15
128	COc1ccccc1NC(=O)CCC(=O)OCc1cccc([N+](=O)[O-])c1	11
129	Cc1ccc(-n2nnnc2SCC#N)cc1	14
130	O=C1NNC(c2ccccc2)=N/C1=C\c1ccccc1	8
131	CC(=O)c1cccc(NC(=O)N2CCCC2C(=O)NCc2ccc3c(c2)OCO3)c1 (centres undefined)	15
132	COc1ccc(OCCC(=O)OCC(=O)Nc2ccc(S(=O)(=O)N3CCOCC3)cc2)cc1	6
133	Cc1ccsc1C(=O)C1CCCN(Cc2cn(C)nc2-c2ccccc2)C1 (centres undefined)	7
134	CC1CCN(C(=O)c2ccc(CNc3c(N4CCCC4)c(=O)c3=O)cc2)CC1	7
